Screens deposited in PubChem BioAssay by several laboratories.
E coli growth: E. coli growth inhibition, primary screen, OD600; Escherichia coli growth, 23 h; hits give low values; OD600 absorbance (concentration not given with the values); 330,000 compounds, 0.21% hits; AID 1053175, 2014;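 active = OD600 absorbance below the run mean of sample wells minus 3.6 SD, in any replicate, cut at about 0.56 in these data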;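 note: stock transfer was 300 nL into about 60 µL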
Beta2AR agonist: beta2AR agonists driving receptor internalization, primary screen, cell-based, FAP fluorogen, flow cytometry; Am2.2-beta2AR cells; reference of the scale not given here; response, % (no concentration beside the values); 340,000 compounds, 0.43% hits;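 active = response above a set limit, near 3 SD of response in nonfluorescent compounds, cut at about 42% in these data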;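 note: stock transfer was 100 nL into about 11 µL; a reference agonist was the positive control; negative values mostly stem from fluorescent compounds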
Bfl-1 A1 inh: caspase 3/7 activation in MEF A1-2A-BIM cells, primary screen, A1 inhibitor project, cell-based, luminescence, HTS; Caspase-Glo 3/7 luminescence, 3 h; percent of clofoctol response, vehicle zero; caspase activation, % (test concentration not listed); 330,000 compounds, 0.066% hits; AID 2462, 2010;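 active = over half of replicate activation scores above 10%, or exactly half above 10 with the replicate mean above 10; inconclusive = replicate mean below 10 yet half the replicates above 10; inactive = over half of replicates below 10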;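 note: wells of about 30 µL received 50 nL stock; many hits fall short of the cut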
HNF4A DNA FP: change in binding of human HNF4A to DNA, primary screen, biochemical, fluorescence polarization, FITC-DNA. Hepatocyte nuclear factor 4-alpha (Homo sapiens), P41235. 1 h. activity change, % at 10 µM. 360,000 compounds, 0.3% hits; in the data active = activity change above about 30%, passing the limit was not always enough;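 note: controls were the assay level and a saturating level of protein; the project sought stronger binding though the title names inhibitors; some compounds called inactive have numbers as strong as hits; positive values seem to mean higher polarization but the record does not say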
Target sequence (P41235 whole entry, looked up): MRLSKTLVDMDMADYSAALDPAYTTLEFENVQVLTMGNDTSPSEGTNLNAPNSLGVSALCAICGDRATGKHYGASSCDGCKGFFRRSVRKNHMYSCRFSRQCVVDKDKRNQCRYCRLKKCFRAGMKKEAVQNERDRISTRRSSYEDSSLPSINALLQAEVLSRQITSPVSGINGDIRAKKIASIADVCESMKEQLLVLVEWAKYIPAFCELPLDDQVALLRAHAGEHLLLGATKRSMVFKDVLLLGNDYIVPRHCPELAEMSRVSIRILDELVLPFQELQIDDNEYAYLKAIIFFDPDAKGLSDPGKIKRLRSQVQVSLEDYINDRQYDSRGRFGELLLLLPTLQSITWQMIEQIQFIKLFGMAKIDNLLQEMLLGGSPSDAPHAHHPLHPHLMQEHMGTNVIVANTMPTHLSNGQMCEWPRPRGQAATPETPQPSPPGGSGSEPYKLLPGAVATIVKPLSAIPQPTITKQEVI
UCH37 inh: inhibitors of human UCH37 deubiquitinase, primary screen, biochemical, Ub-AMC cleavage, fluorescence | 330,000 compounds, 0.33% hits | inhibition, % (test concentration not listed) | AID 588478, 2011 | purified proteasome/UCH37;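 active = mean of two replicates above 20%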;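 note: 0% = compound-free wells with enzyme and 100% = wells lacking proteasome; stock transfer was 100 nL into about 20 µL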
Target sequence (Q9Y5K5 whole entry, looked up): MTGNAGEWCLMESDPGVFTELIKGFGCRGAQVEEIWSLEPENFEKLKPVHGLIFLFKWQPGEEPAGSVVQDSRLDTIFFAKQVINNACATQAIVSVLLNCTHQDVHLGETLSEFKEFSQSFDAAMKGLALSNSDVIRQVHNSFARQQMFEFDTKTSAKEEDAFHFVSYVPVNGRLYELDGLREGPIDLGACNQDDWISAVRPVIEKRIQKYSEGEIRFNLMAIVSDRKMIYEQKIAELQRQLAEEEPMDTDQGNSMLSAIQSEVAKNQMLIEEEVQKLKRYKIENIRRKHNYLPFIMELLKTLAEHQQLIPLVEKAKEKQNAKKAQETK
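system = Proteasome-associated human UCH37 deubiquitinase | amount = 0.15 nM proteasome as dispensed | medium = pH 7.4 Tris-HCl (50 mM) with ovalbumin, ATP-MgCl2, DTT | incubation = 30 min preincubation with enzyme, 25 min cleavage at room temperature | detection = AMC fluorescence 355/460 nm | read-out basis = percent inhibition | controls = no-proteasome and no-compound wells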
Vif A3G: inhibitors of Vif binding to APOBEC3G peptide, primary screen, biochemical, TR-FRET, GST-Vif 1-94, biotin-A3G peptide, dose response retest (AID 1117319); Virion infectivity factor (Human immunodeficiency virus type 1 group M subtype B (isolate …; TR-FRET GST-Vif / biotin-A3G peptide binding; higher % means a stronger effect; test concentration not given here; strong numbers were not always called active; inhibition, %, or IC50 in µM where a hit was titrated; 260,000 compounds, 0.57% hits;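 active = above the screen mean plus three standard deviations and confirmed in dose response; inconclusive = results disagree or hit not tested in dose response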;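 note: Vif residues 1-94 fused to GST binding biotinylated APOBEC3G peptide 110-148; 0% = full assay without inhibitor and 100% = GST in place of GST-Vif; retest series ran down from 100 µM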
LANA-H2B inh: blockers of LANA interaction with H2A/H2B – biochemical, FP readout, HTS, primary screen | 320,000 compounds, 0.6% hits | AID 2629, 2010 | inhibition, % (test concentration not listed) | cell-free LANA-H2A/H2B peptide, fluorescence polarization | Protein LANA1 (Human herpesvirus 8 type P (isolate GK18)), Q9QR71; in the data active = inhibition mostly above about 10%, no sharp cut-off; inactive = mostly below about 6.7%;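 note: stock transfer was 7.5 nL into about 10 µL; 0% = median of vehicle wells and 100% = median of positive control wells; one replicate is shown; the record names a cut of 25% in any replicate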
* = called active by the depositor; ? = inconclusive; / = no result given; & = joins results of further samples.

SMILES	E coli growth	Beta2AR agonist	Bfl-1 A1 inh	HNF4A DNA FP	UCH37 inh	Vif A3G	LANA-H2B inh
CCOC(=O)c1cc2sc(C)cc2n1CC(=O)NCCc1ccccc1	0.68	7	0.3	-0.1	3.1	-31%	-2.5
CC(CCc1ccccc1)NC(=O)C1CC1 (stereo unspecified)	0.66	2	0.5	0.1	4.7	/	4.0
COc1ccccc1CCC(=O)Nc1ccc(OC)c(S(=O)(=O)N2CCCCC2)c1	0.68	2	-1.4	4.9	0.0	9%	0.5
Cc1ccc(C)c(-c2cc(C(=O)N/N=C/c3cccnc3)c3ccccc3n2)c1	/	11	0.1	2.8	/	/	-4.8
O=C1N(Cc2cccnc2)C[C@@H]2C[C@@H](c3ccccc3C#Cc3ccccc3)N3CCC[C@@]123	0.73	6	1.0	0.7	1.8	7%	3.5
Cc1cc(C)cc(NC(=O)CSc2nc3c(c(=O)n2C)SC(C)C3)c1 (stereo unspecified)	0.76	-11	0.6	-1.0	2.9	22µM*	2.4
COc1ccc(C2CC(c3cccc(C)c3)n3nc(N)nc3N2)cc1 (stereo unspecified)	0.76	-3	-1.6	-1.5	-1.3	21%	-2.7
COc1ccc(S(=O)(=O)N2CCOCC2)cc1NC(=O)CN1CCCCCC1	0.69	-2	0.5	-3.2	2.6	1%	0.2
COc1ccc(/C=N/c2nc3ccccc3n2C)cc1OC	/	-4	-0.1	-2.5	/	-5%	-2.9
CCN1C(=NCCOC)N[C@@H](CCc2ccccc2)[C@H](C(=O)OC)[C@H]1C	/	-2	-0.2	-1.2	1.4	/	2.4
Cc1cc(C)nc(/N=C(\N)Nc2ccc(CC(=O)OC(C)C)cc2)n1	0.66	-9	2.3	-0.7	0.5	5%	1.2
CC(C)c1nc2sc3c(NCc4ccco4)ncnc3c2c2c1COC(C)(C)C2	0.71	7	-0.1	-0.6	-3.4	>50µM*	-2.4
Cc1nc2ccccc2n1Cc1ccc(Br)cc1	0.57	11	-0.4	-1.6	-6.9	/	-1.0
Cc1cccnc1Nc1ncnc(N)c1[N+](=O)[O-]	0.72	2	0.7	2.3	16	-9%	1.4
CCOc1ccccc1OCCCC(=O)ON=C(N)c1ccccc1	/	6	1.4	-0.2	/	/	-2.8
CC1(OC(=O)C2CCCC2)C(=O)C=C2C=C(c3ccsc3)N(CCCCO)C=C2C1=O (stereo unspecified)	0.69	-6	1.6	-3.2	7.4	21%	12
Cc1cc(C)n(/N=C/c2ccc(C(C)C)cc2)c(=O)c1C#N	/	1	-0.1	-1.5	/	?	-1.1
O=C(NN=C1CCCC1)c1ccccc1O	0.65	-3	0.9	-3.4	-134	-1%	-2.7
CCNc1nc2c(c(=O)n(C)c(=O)n2C)n1Cc1ccc(Cl)cc1	0.76	1	0.5	5.5	4.6	/	0.0
COc1cc(CNC(=O)c2nc(Cn3nc(C)c(Br)c3C)no2)cc(OC)c1	0.69	-1	2.2	-0.9	1.3	21%	3.8
O=C(Nc1cc(=O)[nH]c2ncnn12)c1ccccc1F	0.64	10	-2.3	1.1	2.3	-2%	-1.4
CC(=O)N1CCC(C(=O)Nc2ccc(S(=O)(=O)N3CCCC(C)C3)cc2)CC1 (stereo unspecified)	0.65	5	/	1.5	2.2	-8%	/
COC(=O)c1cccc(N2C(=O)C(Cl)=C(N3CCOCC3)C2=O)c1	0.71	4	0.2	2.5	2.8	16%	-1.7
O=C(N/N=C/c1ccccc1)c1[nH]ncc1Br	/	-7	-8.0	3.8	/	-3%	4.3
COc1cccc(N2CCN(c3ccc(S(=O)(=O)N4CCN(C)CC4)cc3[N+](=O)[O-])CC2)c1	0.67	12	-0.8	-5.5	3.6	1%	6.3

Additional results follow:
SMILES	E coli growth	Beta2AR agonist	Bfl-1 A1 inh	HNF4A DNA FP	UCH37 inh	Vif A3G	LANA-H2B inh
Cn1c(CN(O)S(=O)(=O)c2ccc(Cl)cc2)nnc1C(F)(F)F	0.69	1	0.2	18	0.2	/	0.2
CC1=CC(C)(C)N(C(=O)CCl)c2cc(C)ccc21	0.71	-3	0.8	3.0	0.0	14%	2.5
CCCC(C)NC(=O)Cn1c(=O)c2c(ncn2CCC(C)C)n(Cc2ccccc2)c1=O (stereo unspecified)	0.66	12	0.9	3.1	0.6	/	3.4
Cc1csc(NC(=O)c2ccc3c(c2)OCO3)n1	0.67	24	0.0	2.1	4.8	/	8.1
O=C(O)COCC(=O)Nc1cc(C(F)(F)F)cc(C(F)(F)F)c1	0.66	-2	0.4	6.2	1.5	-3%	-2.8
COc1ccc2c(CCNC(=O)c3ccc([N+](=O)[O-])cc3)c[nH]c2c1	0.73	5	0.7	-1.7	27*	?	-8.6
O=C(CN(c1ccccc1)S(=O)(=O)c1ccc(F)cc1)N1CCCCCC1	0.72	3	0.2	-3.9	2.2	0%	-8.7
COc1ccc(NC(=O)Nc2ccc([N+](=O)[O-])cc2)cn1	0.61	9	-0.8	-15	8.1	1%	7.6
COC(=O)c1cc(Br)c(=O)n(Cc2ccc3c(c2)OCO3)c1	0.7	-4	-1.6	1.1	1.2	-4%	17
Cc1ccc2c(c1)[C@H]1OCC[C@H]1[C@@H](c1ccncc1)N2	0.75	1	-0.1	-4.4	3.8	28%	1.6
COc1ccc(C(=O)OCn2nnc3ccccc3c2=O)cc1	0.65	-3	0.7	0.7	-3.8	/	-2.9
N=c1oc2ccc3ccccc3c2cc1-c1nc(-c2ccccc2)cs1	0.68	-6	1.5	-3.0	-61	/	6.4
COc1ccc(NC(=O)CSc2ccccc2)c(OC)c1	0.73	-3	-0.5	-1.7	-1.0	1%	1.4
CCN(CC)C(=O)c1ccc(O)c(OC)c1	0.7	2	0.3	-0.9	1.3	?	-0.4&-1.2
Cc1c(CCOC(=O)C2C3CC4CC(C3)CC2C4)sc[n+]1CC(=O)c1ccc(Br)cc1 (stereo unspecified)	0.68&0.69	40&16	0.5	-4.1&-1.1	4.3&3.2	-1%&-4%	2.5
CS(=O)(=O)c1ccccc1C(=O)Nc1ccc(-c2nc3ccccc3o2)cc1	0.69	-3	-0.5	-1.4	-10	/	-2.4
Cc1ccccc1C(=O)Nc1cc(NC(=O)c2ccccc2C)cc(C(=O)O)c1	0.59	8	-0.3	3.1	2.1	-6%	0.1
CC(C)CNC(=O)C(=O)NNC(=O)C1CCCCC1	0.71	-8	0.4	1.0	4.0	-6%	-3.6
CN1C(=O)Cc2cc(S(=O)(=O)NCCc3ccc(Cl)cc3)ccc21	0.67	-8	0.1	0.3	1.1	/	-4.0
CCN(CC)S(=O)(=O)c1ccc2oc(SCC(=O)NC3CC3)nc2c1	0.7	-9	-0.9	4.5	1.5	-6%	2.8
CCC(=O)N(CC)Cc1cc(=O)[nH]c2ccccc12	0.62	0	0.1	3.4	-0.1	/	-5.1
CS(=O)(=O)N1CCN(S(=O)(=O)c2ccccc2[N+](=O)[O-])CC1	/	1	-0.2	-2.1	/	-3%	4.9
O=C(Nc1cccc(NC(=O)c2ncn[nH]2)c1)c1cccc(Cl)c1	0.7	0	-2.4	3.6	2.5	3%	-0.3
CN(C(=O)CSc1nnc(-c2ccccc2)o1)c1c(N)n(Cc2ccccc2)c(=O)[nH]c1=O	0.7	-11	1.0	-0.6	-1.0	1%	-2.5
CCCNC(=O)Cc1c(OC)ccc2cc(Br)ccc12	0.67	-9	0.9	3.7	2.0	-21%	-5.3

Filtered by structure: the entries above with a CF3 group (two)
SMILES	E coli growth	Beta2AR agonist	Bfl-1 A1 inh	HNF4A DNA FP	UCH37 inh	Vif A3G	LANA-H2B inh
Cn1c(CN(O)S(=O)(=O)c2ccc(Cl)cc2)nnc1C(F)(F)F	0.69	1	0.2	18	0.2	/	0.2
O=C(O)COCC(=O)Nc1cc(C(F)(F)F)cc(C(F)(F)F)c1	0.66	-2	0.4	6.2	1.5	-3%	-2.8

The listing continues:
SMILES	E coli growth	Beta2AR agonist	Bfl-1 A1 inh	HNF4A DNA FP	UCH37 inh	Vif A3G	LANA-H2B inh
C=CCN1C(=O)C2(OCCCO2)c2cccc(Cl)c21	0.69	-7	0.2	1.5	0.7	/	-0.6
COC(=O)Nc1nnc(Cc2ccc(OC)cc2)s1	0.68	1	-0.1	-1.0	2.8	3%	-6.5
O=C(CSCC(=O)N1CCOCC1)Nc1nc(-c2ccc3c(c2)OCO3)cs1	0.77	15	-4.0	1.5	5.9	0%	-1.0
COc1cc(-c2ccc3c(=O)c4ccccc4n(C)c3c2)cc(OC)c1OC	/	7	-0.1	-0.9	-10	/	-6.8
COc1cccc(-c2nc(CS(=O)(=O)CC(=O)NC3CCCC3)c(C)o2)c1	0.65	3	-1.0	-3.8	-0.8	/	-2.2
COC(=O)CNC(=O)c1cccc(F)c1	0.67	6	0.9	3.0	3.4	-7%	4.8
CCOC(=O)c1sc(NC(=O)CCN2C(=O)C3CCCCC3C2=O)cc1C (stereo unspecified)	0.7	-10	-0.2	4.9	3.7	12%	-1.2
COc1ccc(CCNC(=O)CN(c2ccccc2OC)S(=O)(=O)c2ccc(C)cc2)cc1	0.69	8	0.6	0.9	-0.1	/	1.0
O=C(O)Cc1ccc(NS(=O)(=O)c2ccccc2Br)cc1	0.68	-3	0.4	-2.0	1.7	6%	2.8
CC(=O)Nc1ccc(NC(=O)C(C)n2c3ccccc3c3nc(=O)cc(C)n32)cc1 (stereo unspecified)	0.73	-2	0.3	3.2	1.1	-2%	-0.3
CCNC(=O)C(=O)NCc1ccncc1	/	13	1.0	0.6	/	-7%	1.5
CCc1cc(OCCN2C(=O)NC(C)(C)C2=O)ccc1Cl	0.72	0	0.5	3.0	4.2	3%	2.9
CCOc1ccc(OCC)c(NS(=O)(=O)c2ccc3c(c2)CCN3C(=O)C2CCC2)c1	0.72	1	-0.4	-2.1	1.7	24%	3.3
Cc1cccc(NC(=S)N(CCN(C)C)Cc2cc3cc(C)cc(C)c3[nH]c2=O)c1	0.69	22	0.6	-1.0	-5.2	/	-2.5
C[C@H]1CN[C@@H](CCO)/C1=C\c1ccccc1	0.68	-10	/	3.9	1.0	4%	/
Cc1cccc(-n2nc([N+](=O)[O-])c(=NC3CCN(Cc4ccccc4)CC3)n2O)c1	0.59	6	0.2	2.1	6.3	12%	-4.0
COc1ccc(-c2csc(NC(=O)Cn3nc(C)cc3C)n2)cc1	0.75	3	0.1	-0.6	4.8	0%	-0.7
NC12CC3CC(C1)CC(O)(C3)C2	0.69	5	-0.1	1.1	2.6	3%	-13
COc1ccc(CCN2CC(C(=O)N3CCN(C(C)=O)CC3)CCC2=O)cc1 (stereo unspecified)	0.7	-3	-0.2	2.7	-0.1	-3%	-7.2
Cc1ccc(C)c(OCCC(=O)Nc2cccc(S(=O)(=O)NC3=NCCCCC3)c2)c1	0.63	11	2.3	-8.3	0.2	-4%	1.2
COC(=O)c1nn(-c2ccccc2)c(=O)cc1Oc1ccc(Cl)cc1	0.72	14	2.3	0.2	0.3	-8%	2.8
CCN(CC)c1ccc(N2C(=O)CSC2=S)cc1	0.73	-3	0.2	3.4	2.5	-8%	-5.2
CCOC(=O)Cn1cc(C(=O)c2cccs2)c2ccccc21	0.69	5	-0.4	0.8	4.3	1%	-3.2
COc1ccc(CNC(=O)C(=O)NCC2OCCN2S(=O)(=O)c2ccc(F)cc2)cc1 (stereo unspecified)	0.74	2	0.0	-0.6	0.0	/	-0.5
COc1ccc(-c2cc(C(=O)Nc3cccc(O)c3)no2)cc1	0.7	7	-10	0.2	0.9	-7%	3.7
